Screening results from PubChem.
Vif A3G – HIV-1 Vif–A3G interaction blockers – biochemical, TR-FRET, GST-Vif 1-94, biotin-A3G peptide, dose response retest, primary screen (AID 1117319); TR-FRET GST-Vif / biotin-A3G peptide binding; higher % means a stronger effect; test concentration not given here; strong numbers were not always called active; inhibition, %, or IC50 in µM where a hit was titrated; 0.57% of 260,000 active;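 active means above the screen mean plus three standard deviations and confirmed in dose response; inconclusive means results disagree or hit not tested in dose response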;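 further: Vif residues 1-94 fused to GST binding biotinylated APOBEC3G peptide 110-148; 0% = full assay without inhibitor and 100% = GST in place of GST-Vif; retest series ran down from 100 µM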
RanGTP-Imp inh – disruptors of Ran-importin-beta complex formation – biochemical, FRET, CFP-Ran, YFP-importin-beta, homogeneous, primary screen | 1.1% of 300,000 active | cell-free CFP-Ran/YFP-importin-beta FRET ratio | AID 2216 | inhibition, % (no concentration beside the values);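 active means most replicates above 15%; inconclusive means exactly half above 15%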;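 further: 0% = DMSO wells and 100% = Ran loaded with GDP instead of GTP; wells of about 40 µL received 100 nL stock; the first replicate is given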
LANA-H2A inh – blocks KSHV LANA binding to histone H2A/H2B; inhibition, % (test concentration not listed); AID 2629; 0.6% of 320,000 active; cell-free LANA-H2A/H2B peptide, fluorescence polarization; Q9QR71; in the data active means inhibition mostly above about 10%, no sharp cut-off; inactive means mostly below about 6.7%;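 further: stock transfer was 7.5 nL into about 10 µL; 0% = median of vehicle wells and 100% = median of positive control wells; one replicate is shown; the record names a cut of 25% in any replicate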
Beta2AR agonist – activates human beta-2 adrenergic receptor causing internalization; P07550; Am2.2-beta2AR cells, FAP receptor internalization, flow cytometry; reference of the scale not given here; response, % (concentration not given with the values); 0.43% of 340,000 active; AID 504454;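 active means response above a set limit, near 3 SD of response in nonfluorescent compounds, cut at about 42% in these data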;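 further: stock transfer was 100 nL into about 11 µL; a reference agonist was the positive control; negative values mostly stem from fluorescent compounds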
Target sequence (P07550 whole entry, looked up): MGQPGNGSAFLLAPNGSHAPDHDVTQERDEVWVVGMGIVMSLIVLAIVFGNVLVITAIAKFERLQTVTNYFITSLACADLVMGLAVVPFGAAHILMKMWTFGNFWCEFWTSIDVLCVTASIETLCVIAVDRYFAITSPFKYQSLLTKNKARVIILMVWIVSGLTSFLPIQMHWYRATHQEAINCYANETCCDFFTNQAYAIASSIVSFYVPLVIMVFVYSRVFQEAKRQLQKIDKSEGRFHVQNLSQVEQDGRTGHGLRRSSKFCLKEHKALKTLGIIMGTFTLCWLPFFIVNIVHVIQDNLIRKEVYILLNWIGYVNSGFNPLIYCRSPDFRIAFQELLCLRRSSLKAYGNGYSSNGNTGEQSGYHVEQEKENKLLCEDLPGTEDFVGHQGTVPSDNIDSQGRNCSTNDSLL
Calb FLC – C. albicans growth modulation with fluconazole; C. albicans CaCi-2 (fluconazole-resistant clinical isolate) + fluconazole, Alamar Blue growth, 48 h; growth inhibition, % (concentration not given with the values); 0.57% of 300,000 active; AID 1979;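 active means most replicates above 75%; inconclusive means exactly half above 75%; inactive means most below 75%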;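 further: all wells also contain fluconazole at 8 µg/ml as a sub-toxic cotreatment; 0% = median of DMSO wells and 100% = median of geldanamycin control wells; wells of about 8 µL received 7.5 nL stock; the first replicate is given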
HNF4A DNA FP – change in binding of human HNF4 alpha to DNA; HNF4a-FITC DNA binding, fluorescence polarization, 1 h; P41235; 0.3% of 360,000 active; activity change, % at 10 µM; in the data active means activity change above about 30%, passing the limit was not always enough;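 further: controls were the assay level and a saturating level of protein; the project sought stronger binding though the title names inhibitors; some compounds called inactive have numbers as strong as hits; positive values seem to mean higher polarization but the record does not say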
Target sequence (P41235 whole entry, looked up): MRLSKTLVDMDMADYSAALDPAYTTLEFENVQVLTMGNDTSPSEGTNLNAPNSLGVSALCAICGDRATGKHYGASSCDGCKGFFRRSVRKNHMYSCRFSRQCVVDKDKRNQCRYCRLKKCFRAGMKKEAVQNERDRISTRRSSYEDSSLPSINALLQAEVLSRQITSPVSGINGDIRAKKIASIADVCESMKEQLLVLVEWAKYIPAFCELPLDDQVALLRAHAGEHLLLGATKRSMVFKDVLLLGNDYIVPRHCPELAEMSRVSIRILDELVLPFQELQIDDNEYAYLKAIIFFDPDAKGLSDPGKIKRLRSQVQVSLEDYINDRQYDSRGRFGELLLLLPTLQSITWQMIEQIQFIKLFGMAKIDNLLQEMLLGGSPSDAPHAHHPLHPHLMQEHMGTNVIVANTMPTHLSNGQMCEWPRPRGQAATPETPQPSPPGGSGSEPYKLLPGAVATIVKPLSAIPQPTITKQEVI
ALR inh – blocks human ALR sulfhydryl oxidase activity. P55789. inhibition, % (no concentration beside the values). purified ALR, DTT oxidation, H2O2 HRP-luminol luminescence. 3.8% of 290,000 active;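 active means mean and each replicate at 75% or more; inconclusive means only one of the two met; inactive means neither met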;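 further: stock transfer was 7.5 nL into about 7.5 µL; 0% = neutral wells and 100% = wells with inactivated enzyme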
Target sequence (P55789 whole entry, looked up): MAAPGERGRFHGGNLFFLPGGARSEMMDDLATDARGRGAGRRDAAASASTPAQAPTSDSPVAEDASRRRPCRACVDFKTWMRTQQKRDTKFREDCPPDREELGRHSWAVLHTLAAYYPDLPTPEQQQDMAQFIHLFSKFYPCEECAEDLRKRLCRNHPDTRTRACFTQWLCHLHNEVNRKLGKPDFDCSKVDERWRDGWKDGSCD
Numbers without * were called inactive; ? = inconclusive; · = not tested or not shown.

entry	Molecule	Beta2AR agonist	LANA-H2A inh	Calb FLC	RanGTP-Imp inh	ALR inh	Vif A3G	HNF4A DNA FP
1	O=C(C1=C[C@@H](c2csc3ccccc23)C[C@@H](OCc2ccc(CO)cc2)O1)N1CCN(Cc2ccc3c(c2)OCO3)CC1	9	-0.7	-3	4.7	-1	-2%	-0.3
2	CCOc1ccc(NCCC(O)c2ccc(F)cc2)cc1 (stereo not given)	-10	4.0	-9	1.1	·	1%	3.5
3	COc1ccc(NC(=O)C(NC(=O)CC2NC(=O)NC2=O)c2ccccc2)cc1 (stereo not given)	-2	-1.4	-1	0.7	-1	·	0.1
4	CCOCCCNC(=S)N(CCO)Cc1cc2cc3c(cc2[nH]c1=O)OCCO3	8	0.6	-1	-6.7	-31	-7%	4.7
5	CCOC(=O)c1cnn(-c2ccccc2)c1-n1cccc1C(=O)C(=O)Nc1ccccc1	2	-2.3	-2	0.0	13	0%	1.4
6	CN(C)S(=O)(=O)c1ccc(C(=O)Nc2ccccc2F)cc1	-1	1.7	3	-2.2	-6	1%	6.2
7	CC1(C)Cc2c(sc3nc(SCC(=O)O)[nH]c(=O)c23)CO1	4	1.0	-2	?	2	14%	2.9
8	CC1CCCCN1CCCNC(=O)c1c(O)nc2ccccn2c1=O (stereo not given)	-3	-0.2	7	1.6	-5	·	-2.9
9	COc1ccccc1C=NC(CO)C(O)c1ccc([N+](=O)[O-])cc1 (stereo not given)	-7	0.9	4	3.1	-22	80%	-6.4
10	O=C1CCc2cc(NS(=O)(=O)c3ccccc3)cc3c2N1CC3	2	0.7	6	1.3	2	13%	1.0
11	Nc1cc(S(=O)(=O)Nc2ccccc2Cl)ccc1N1CCOCC1	-4	0.9	-1	9.7	45	18%	-1.2
12	Cc1ccccc1CN(C)C(=O)CNC(=O)c1ccc2ccccc2c1	-5	-0.8	7	3.7	-9	-2%	-0.5
13	CC1CCCCC1NC(=O)Cn1cccc1C(=O)c1ccccc1 (stereo not given)	3	1.2	-4	-3.1	6	·	-0.5
14	CCCN(CCC)C(=O)c1cc2c(=O)n3cccc(C)c3nc2s1	1	0.3	-2	-2.5	38	4%	2.5
15	O=c1c2ccccc2c(C=Nc2cccc(O)c2)c(O)n1-c1ccc2c(c1)OCO2	5	6.0	4	?	-5	-1%	-1.2
16	Cc1cc(C)cc(NC(=O)CN2C(=O)c3ccccc3C2=O)c1	4	4.9	-15	2.3	-6	6%	-3.0
17	CCOC(=O)C1CCN(Cc2c(C(=O)N3CCOCC3)nc3c(C)cccn23)CC1	-4	-1.0	-8	-0.6	5	·	3.0
18	COC(=O)C1=C(O)/C(=C\c2ccc(OCC(=O)Nc3ccccc3)cc2)N=C1C	-4	7.6	-1	-0.6	-16	-10%	2.9
19	COc1ccccc1Nc1ncc(C(C)=O)c(C)n1	0	1.5	-5	?	0	1%	-4.8
20	O=C(NNC(=O)c1ccc(-n2cncn2)c([N+](=O)[O-])c1)c1ccccc1	-4	·	·	·	-17	1%	-2.8
21	Cc1cc(C)n(CCC(=O)N2CCCC(N3CCN(c4cccc(Cl)c4)CC3)C2)n1 (stereo not given)	-2	15	-3	-6.1	17	4%	2.3
22	c1cnc(NC2C3CC4CC(C3)CC2C4)nc1 (stereo not given)	-8	2.0	-6	-0.8	-6	-2%	-3.8
23	CC(Oc1ccccc1Cl)C(=O)Nc1ccccc1C(=O)N1CCOCC1 (stereo not given)	3	4.4	-7	-1.6	5	-1%	-0.9
24	Cc1ccc(NC(=O)c2ccc([N+](=O)[O-])o2)cc1S(=O)(=O)N1CCOCC1	10	-2.4	65	-1.0	-38	11%	-0.3
25	COc1cc(/C=C2\N=C(C)OC2=O)cc(Cl)c1OC(C)=O	3	5.3	0	1.9	15	1%	0.3
26	COc1cccc(N(CC(=O)Nc2ccccc2C(=O)N2CCCC2)S(C)(=O)=O)c1	4	7.4	7	-2.9	-7	·	-0.6
27	O=C(NCc1ccccc1)/C(=C/c1ccc([N+](=O)[O-])cc1)NC(=O)c1ccco1	-17	3.8	31	-9.4	1	·	-3.0
28	CC(=O)Nc1ccccc1/C=C/c1ccc2c(C)ccc(O)c2n1	5	2.4	3	-4.7	-12	?	0.3
29	O=C(c1cccs1)N1CCc2ccccc2C1	-5	3.1	-3	1.4	5	·	-1.4
30	COc1ccc2nc(-c3ccco3)c(-c3ccco3)nc2c1	11	-0.5	6	54*	10	0.35µM*	-41
31	NS(=O)(=O)c1ccc(Nc2ccccc2)c([N+](=O)[O-])c1	-2	3.5	14	-1.7	-3	32%	-6.2
32	CC(C)Oc1ccc(CNS(=O)(=O)c2csc(C(N)=O)c2)cc1	10	-0.9	-2	3.2	-1	·	-1.7
33	O=C1OCCC1=Cc1ccccc1	-8	·	·	·	·	-5%	-1.5
34	O=C(NCCNc1ccc([N+](=O)[O-])cc1Cl)c1ccccc1F	2	-12	24	2.4	-4	2%	3.2
35	CCOC(=O)CNC(=O)C1Cc2ccccc2CN1S(=O)(=O)c1cccs1 (stereo not given)	9	-1.8	-3	6.7	6	5%	-6.4
36	COc1ccccc1CNC(=O)C1CCCN(S(=O)(=O)c2ccc3c(c2)C(C)(C)C(=O)N3C)C1 (stereo not given)	-2	-0.3	-8	?	2	·	4.0
37	COCCOC(=O)C1=C(C)N=C2SCCC(=O)N2C1/C=C/c1ccccc1 (stereo not given)	0	1.8	-24	4.9	-2	-1%	2.5
38	COc1ccccc1C(=O)NCCC(=O)N1CCN(c2cccc(C(F)(F)F)c2)CC1	-2	3.8	0	-1.9	0	0%	-4.6
39	Cc1cc(C)cc(C(=O)NC(CC(N)=O)c2ccc(N3CCN(c4ccccn4)CC3)c([N+](=O)[O-])c2)c1 (stereo not given)	68*	-1.3	7	-2.0	2	·	0.3
40	COc1ccc(NC(=O)CSCC(=O)Nc2nnc(CC(C)C)s2)cc1	4	1.4	-1	?	3	-2%	2.5
41	Cc1ccc(-n2nnnc2SCC(=O)NC2CCS(=O)(=O)C2)c(C)c1 (stereo not given)	-3	·	·	·	·	-2%	-1.4
42	CCc1nnc2n1N=C(c1ccccc1)CS2	-16	2.3	0	1.0	-21	2%	0.2
43	CC(C)CN(C(=O)CCCOc1ccc(Cl)cc1Cl)c1c(N)n(Cc2ccccc2)c(=O)[nH]c1=O	-1	-4.4	32	4.5	0	-7%	-0.5
44	C/C(=N\NC(=O)c1cc(-c2ccncc2)nc2ccccc12)c1ccc(OC(F)F)cc1	0	2.4	7	-5.7	·	-8%	6.5
45	CCC(C)NS(=O)(=O)c1ccc(OCC(=O)N2CCCCC2)cc1 (stereo not given)	4	3.1	0	-1.8	-13	8%	-4.8
46	Oc1ccc(C2Nc3cccc4cccc(c34)N2)cc1	19	9.0	27	-1.2	-95	6%	-2.8
47	N=c1c2c(-c3ccccc3)c(-c3ccccc3)n(Cc3ccco3)c2ncn1CCO	18	0.8	5	-4.4	0	-10%	4.0
48	Cc1cccc(OCC(=O)N2CCC(c3ccccc3)C2)c1 (stereo not given)	3	-4.4	-11	4.9	-3	1%	2.3
49	CN(C)CCCN(C(=O)c1cc2ccccc2oc1=O)c1nc2c(F)cccc2s1	-1	7.8	0	-0.4	-2	13%	-1.6
50	Cc1ccc(-c2cc(-c3ccccc3)nc(NN)n2)cc1	6	0.1	9	4.2	-1	·	0.9
51	Cc1ccc(S(=O)(=O)N2[C@@H](c3ccc(F)cc3)C(C(=O)O)=CC[C@H]2c2cccs2)cc1	4	1.0	·	·	6	·	4.0
52	CC1(C)Cc2c(cnn2-c2ccccc2)C(NC(=O)C2(C(N)=O)CC2)C1 (stereo not given)	4	4.8	-3	1.4	10	-6%	4.9
53	O=C(CNC(=O)c1ccc(Cl)cc1)OCCN1C(=O)c2ccccc2C1=O	2	7.7	·	·	-1	-5%	0.2
54	CCNc1nc(NCC)n2c(SCC(=O)N(CC)C3CCCCC3)nnc2n1	-7	-1.6	20	0.8	-7	0%	0.3
55	CCOc1ccc(C(=O)N2CCN(CCc3ccccc3)CC2)cc1OCC	-3	-2.3	-3	-2.2	-1	-1%	-0.7
56	CCc1c(O)cc2n(c1=O)-c1ccccc1C2(C)C	13	5.7	0	0.0	2	-13%	-3.8

(list continues)
entry	Molecule	Beta2AR agonist	LANA-H2A inh	Calb FLC	RanGTP-Imp inh	ALR inh	Vif A3G	HNF4A DNA FP
57	Nc1ccc(NC(=O)c2ccccc2)c2c1C(=O)c1ccccc1C2=O	11	0.5	20	-2.6	-17	8%	-2.4
58	CCOC(=O)N1CCN(C(=O)C2CCC(=O)N2C(C)C)CC1 (stereo not given)	18	-0.4	-12	5.6	-3	4%	-1.9
59	COCCCNC(=O)CCC(=O)Nc1ccc2nc(N3CCOCC3)cc(C)c2c1	0	4.2	-1	8.2	9	3%	-1.7
60	CC1(C)CC2CC(C)(CN2C(=O)CN2C(=O)c3ccccc3C2=O)C1 (stereo not given)	-9	6.1	20	3.0	3	3%	1.8
61	Cc1cccc(OCCSc2nc3c([nH]2)c(=N)ncn3Cc2ccccc2)c1	1	1.7	1	8.7	2	4%	-4.4
62	COc1cc(C)nc(N(Cc2ccccc2)S(=O)(=O)c2ccc(C)cc2)n1	-9	-1.4	15	3.3	·	20%	2.4
63	c1ccc(NCCCNc2ccccc2)cc1	2	-2.8	-30	-3.1	98*	8%	-2.9
64	COC(=O)c1ccccc1NC(=O)c1ccc2c(c1)OCCO2	4	-6.2	-2	-0.8	10	4%	1.9

Full records from above.
COC(=O)c1ccccc1NC(=O)c1ccc2c(c1)OCCO2 across the screens: Beta2AR agonist: 4; LANA-H2A inh: -6.2; Calb FLC: -2; RanGTP-Imp inh: -0.8; ALR inh: 10; Vif A3G: 4%; HNF4A DNA FP: 1.9
COc1cc(C)nc(N(Cc2ccccc2)S(=O)(=O)c2ccc(C)cc2)n1 across the screens: Beta2AR agonist: -9; LANA-H2A inh: -1.4; Calb FLC: 15; RanGTP-Imp inh: 3.3; ALR inh: ·; Vif A3G: 20%; HNF4A DNA FP: 2.4

(list continues)
entry	Molecule	Beta2AR agonist	LANA-H2A inh	Calb FLC	RanGTP-Imp inh	ALR inh	Vif A3G	HNF4A DNA FP
65	O=C(Nc1cccc(Cl)c1)N1CCN(C2c3ccccc3-c3ccccc32)CC1	0	-5.1	17	5.2	-8	11%	-2.5
66	CCCC(NCC(=O)Nc1ccccc1C(=O)NC1CC1)c1ccccc1 (stereo not given)	-6	·	·	·	·	36%	0.1
67	CCN(CC)c1ncnc2sc3c(c12)CCC3	7	-5.8	8	0.5	47	-1%	0.7
68	NC(=O)C1=C[C@@H](c2ccccc2)C[C@@H](OCCCCO)O1	-5	-0.3	-10	-0.5	-31	·	1.2
69	CCN1C(=C(C#N)C#N)C=Cc2ccccc21	0	13	7	-3.7	-11	-5%	-1.9
70	COc1cccc(/C(N)=N/OC(=O)Cc2ccccc2[N+](=O)[O-])c1	10	-0.2	-12	?	-1	10%	-0.2
71	CCCCC(CC)C1OCC(CN2CCCC2)O1 (stereo not given)	3	-3.9	4	0.3	-5	-2%	-0.9
72	C(=N\N=C\c1cccs1)/c1cccs1	-1	9.8	-16	-1.2	-8	·	0.1
73	O=C1C2C3C=CC(C4CC34)C2C(=O)N1/N=C/c1ccc(-c2ccc(F)cc2[N+](=O)[O-])o1 (stereo not given)	1	0.8	3	2.3	-9	18%	-3.2
74	O=C(CN1C(=O)/C(=C/c2cccc(Br)c2)SC1=S)N1CCCC1	-21	-1.4	0	1.2	-4	30%	0.7
75	CN1CCN(c2ccc(NC(=O)c3ccc(Cl)cc3)cn2)CC1	1	4.2	7	0.8	94*	5%	-2.2
76	COc1ccc(-c2nc3scc(-c4ccccc4)n3n2)cc1	-38	1.7	14	0.2	6	4%	-1.4
77	Cc1oc(-c2ccccc2Cl)nc1CSCC(=O)N1CCCC1	-4	5.4	-3	-3.8	75	?	1.1
